# Assay outcomes deposited in PubChem BioAssay by National Center for Advancing Translational Sciences (NCATS).
# Sfp inh – qHTS Assay for Inhibitors of Bacillus subtilis Sfp phosphopantetheinyl transferase (PPTase) | 4'-phosphopantetheinyl transferase ffp (Bacillus subtilis), Q9F4F7 | Biochemical Sfp PPTase activity, qHTS | Potency, µM, inactives show max response, negative = inhibition, hits mostly inhibitors | 310,000 tested, 3.5% active; active means well fitted inhibition curve with a large enough effect; inconclusive means small, poorly fitted or top-dose-only effect, or another doubt; inactive means no such curve, though single readings can be large or run the other way;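 further: the enzyme is Sfp with the accession as filed and its product quenches rhodamine fluorescence; potency means the concentration at half of the fitted maximal effect; 0% = enzyme reaction without inhibitor and -100% = no enzyme wells; top concentration of the series not given in the record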
#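 After 15 min at room temperature with compound, 15 nM Sfp received 5 uM rhodamine-CoA plus 12.5 uM BHQ-2-ybbR (50 mM Hepes pH 7.6, 10 mM MgCl2). Rate came from the fluorescence difference over 30 min, ex 525/em 598 nm.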
# PINK1 modulator – A Quantitative High throughput Screen to Identify Chemical Modulators of PINK1 Expression. PINK1 immunofluorescence, high-content cytometry, 24 h. Potency, µM (doses to about 76.6 µM), inactives show top-dose activation (PINK1 increase), hits mostly activators. 410,000 tested, 0.2% active; active = well fitted activation curve with a large enough effect; inconclusive = small, poorly fitted or top-dose-only effect; inactive = flat fitted curve, though single readings scatter; cell line not stated here;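 further: potency means the concentration at half of the fitted maximal effect; % of control where 0% means no effect; nearly all actives have a fitted effect of over 65% in size; a mitochondrial uncoupler was the plate control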
#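 PINK1 protein level read as immunofluorescence by microplate cytometer in a fixed, stained stable cell line after 24 h exposure to five compound concentrations, with CCCP as control.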
# Six1-Eya2 blk – qHTS Assay for Inhibitors of the Six1/Eya2 Interaction | Homeobox protein SIX1 (Homo sapiens) + Protein phosphatase EYA2 (Homo sapiens), … | AlphaScreen GST-Six1/His-Eya2 binding, biochemical; hits give low values; control for the full effect not named in the record | activity change, % (concentration not given with the values) | 360,000 tested, 0.56% active | AID 651725, 2012; in the data active = activity change below about -65%; inconclusive = about -30% to -65%; inactive = above about -30%; further: on the % scale 0 is the no-effect control and ±100 the full control effect
# Target sequence (O00167 whole entry, looked up): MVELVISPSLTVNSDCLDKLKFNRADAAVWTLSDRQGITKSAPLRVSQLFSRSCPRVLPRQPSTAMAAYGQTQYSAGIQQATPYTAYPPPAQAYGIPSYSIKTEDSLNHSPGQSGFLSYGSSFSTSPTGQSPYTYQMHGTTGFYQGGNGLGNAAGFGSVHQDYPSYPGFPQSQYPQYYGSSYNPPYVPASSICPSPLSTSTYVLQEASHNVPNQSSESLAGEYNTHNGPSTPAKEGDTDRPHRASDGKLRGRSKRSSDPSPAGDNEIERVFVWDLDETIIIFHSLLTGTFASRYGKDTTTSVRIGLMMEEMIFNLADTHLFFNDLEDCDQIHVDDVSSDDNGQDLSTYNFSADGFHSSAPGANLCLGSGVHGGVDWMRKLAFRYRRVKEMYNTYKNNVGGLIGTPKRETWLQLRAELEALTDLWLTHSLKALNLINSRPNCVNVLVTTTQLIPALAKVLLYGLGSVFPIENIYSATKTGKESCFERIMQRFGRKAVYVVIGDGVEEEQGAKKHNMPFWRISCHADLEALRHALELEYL
# Target sequence (Q15475 whole entry, looked up): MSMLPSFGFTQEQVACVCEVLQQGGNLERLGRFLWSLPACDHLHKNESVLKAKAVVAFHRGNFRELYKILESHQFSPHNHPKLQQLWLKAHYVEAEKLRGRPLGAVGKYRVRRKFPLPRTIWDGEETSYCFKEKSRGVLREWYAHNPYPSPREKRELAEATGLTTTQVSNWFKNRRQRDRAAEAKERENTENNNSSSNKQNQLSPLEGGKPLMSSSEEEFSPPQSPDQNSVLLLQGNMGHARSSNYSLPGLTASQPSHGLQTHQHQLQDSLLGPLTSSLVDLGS
#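 Compounds are tested against tagged Six1 and Eya2 proteins bridged by glutathione donor and nickel acceptor beads; after a one-hour incubation at 37 °C without light, AlphaScreen emission is recorded.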
# CtBP-E1A blk – qHTS Assay for Inhibitors of the CtBP/E1A Interaction; AlphaScreen GST-E1A/His-CtBP binding, 1536-well; hits give low values; control for the full effect not named in the record; activity change, % (test concentration not listed); 340,000 tested, 0.49% active; in the data active means activity change below about -65%; inconclusive means about -30% to -65%; inactive means above about -30%; further: on the % scale 0 is the no-effect control and ±100 the full control effect; compound concentration not given in the record
#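 In 5 uL wells, 23 nL compound meets equimolar GST-E1A and His-CtBP (5X stock 125 nM each) for 2 h, 37 °C. Beads (5X, 50 ug/mL) then 1 h, 37 °C, dark.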
# D2 ag – Beta-Arrestin HTS for Positive Allosteric Modulators of the Human D2 Dopamine Receptor: Agonists | D(2) dopamine receptor (Homo sapiens), P14416 | 360,000 tested, 0.084% active | DiscoveRx PathHunter D2 beta-arrestin, luminescence, 90 min; 100% = 57 uM dopamine signal | AID 624465, 2012 | activation, % (test concentration not listed); in the data active = activation above about 40%; inconclusive = about 15% to 40%; inactive = below about 15%; further: compound concentration not given in the record; the text of the record calls up to 30% inactive
#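 DiscoveRx PathHunter D2 beta-arrestin cells (2,100/well) attached overnight, then compound-stimulated 90 min at 37 C in HBSS/10 mM HEPES/0.1% Tween-20 buffer; beta-galactosidase complementation read by luminescence after 1 h at ambient temperature. Dopamine 57 uM final (EC100) as control.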
# TRPV1 potentiator – HTS Assay for Compounds that Act as Potentiators of the Vanilloid Receptor 1; potentiation, % at 8.33 µM; TRPV1-expressing cells, Fluo-8 calcium influx, capsaicin EC20 potentiation; host cell line not named in the record; control for the full effect not named in the record; Transient receptor potential cation channel subfamily V member 1 (Homo sapiens), Q8NER1; 320,000 tested, 0.02% active; active means potentiation above 80%; inconclusive means 30% to 80%; inactive means below 30%; further: 0% is about no effect
#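 Fluo-8 calcium influx in TRPV1-expressing cells, kinetic read (ex 480/em 520 nm). Compound added and read 3 min for agonist activity, followed by capsaicin at EC20 final and 2 min further read for enhancement.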
# D2 potentiator – Beta-Arrestin HTS for Positive Allosteric Modulators of the Human D2 Dopamine Receptor: Potentiators. 360,000 tested, 0.23% active. DiscoveRx D2 beta-arrestin cells, luminescence, 90 min; 100% = 57 uM dopamine signal. AID 624464, 2012. potentiation, % (concentration not given with the values); active = potentiation of 50% or more; inconclusive = 30% to 50%; inactive = 30% or less;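 further: compound concentration not given in the record; tested on top of an EC20 dose of dopamine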
#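 PathHunter D2 cells, attached overnight at 37 deg C, received compound in DMSO plus dopamine at EC20 (50 nM final) for 90 min at 37 deg C. Beta-arrestin recruitment was read as luminescence after 1 h with detection reagent at ambient temperature.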
# * = called active by the depositor; ? = inconclusive; nt = not tested or not shown; & = joins results of further samples; [ ] = remark or other dose. Rows were taken by chance; about 3.7% have a hit in one of these screens.
structure	Sfp inh	PINK1 modulator	Six1-Eya2 blk	CtBP-E1A blk	D2 ag	TRPV1 potentiator	D2 potentiator
O=C(Cn1cnc2ccccc21)NCc1ccccc1	19%	8.3%[38.3 µM]	1	1	-2.9	-17	1
O=C(COC(=O)/C=C/c1cccs1)NC(=O)Cc1ccccc1	10%	2.0%	-22	4	-3.2	-8	-2
Cc1cc(OC(=O)c2cc(F)c(F)cc2Cl)nc(C)n1	10%	0.8%	8	10	-2.3	5	-6
O=CN1CCCN(C(=O)CC2C(=O)NCCN2Cc2cccc(Oc3ccccc3)c2)CC1 (centres undefined)	-10%	1.9%	-4	-9	-2.8	-13	-7
CC(=O)Nc1ccc(S(=O)(=O)c2ccc(N)cc2)cc1N	14%	0.3%	1	2	-0.6	-14	-8
NC(=O)c1ccccc1NC(=O)NC1CCCCC1	5%	-1.5%	0	1	-1.1	3	-1
CSCC(O)Cn1[nH]c(=O)c2cc(Cl)c(Cl)cc2c1=O (centres undefined)	7%	0.0%	6	7	-20	6	-9
COc1ccc(NS(=O)(=O)c2cc(NC(=O)c3ccc(Cl)cc3)ccc2N2CCOCC2)cc1	nt	9.5%	-12	-6	4.6	nt	-14
O=C(CSc1ccccc1)NCc1ccccn1	15%	1.7%	-11	5	-0.9	2	-13
O=C(COC(=O)c1cccnc1Nc1ccccc1F)NC1CC1	-1%	5.4%	-9	-10	-2.3	-15	-21
COCCCn1c(SCC(=O)Nc2ccc3c(c2)OCCO3)nnc1-c1ccoc1C	-5%	-1.4%	-1	-1	0.3	4	-11
Cc1cc([N+](=O)[O-])nn1CC(=O)Nc1c(C)n(C)n(-c2ccccc2)c1=O	18%	-0.4%	5	0	-1.8	17	-23
CC(C)(C)OC(=O)NCCc1nnc(SCc2ccc(Cl)cc2Cl)o1	8%	-1.5%	2	2	-2.2	-15	-10
O=C(O)c1ccc(NS(=O)(=O)c2ccc(Cl)c(C(=O)Nc3ccccc3)c2)cc1	8%	0.1%&-0.3%	2	nt	-1.3	12	-2
COC(=O)Cc1c(C)nc2nc(-c3ccc(Cl)cc3)[nH]n2c1=O	14%	2.3%	-5	2	0.3	-7	-8
O=C(CC1SC(=Nc2ccccc2)N(CCc2ccccn2)C1=O)Nc1ccc(F)cc1 (centres undefined)	5%	-1.8%	0	-4	-3.2	3	-5
CN1CCCCc2c1[nH]c1ccccc1c2=O	-3%	-0.3%	2	1	-0.7	-1	5
O=C(/C=C/c1ccc(Cl)cc1)N1CCN(Cc2ccccc2)CC1	-2%	-2.5%	-22	-9	-4.5	2	-17
COCCOC(=O)C1=C(C)Nc2nc(C)nn2C1c1ccc(F)cc1 (centres undefined)	7%	-1.8%&-1.4%	3&2	-1&12	-2.1&-1.5	-18	-6&-2
Cc1cccc(C)c1NC(=O)CNC(=O)CCNC(=O)c1ccco1	nt	-1.8%	4	1	-2.0	-8	4
COc1cc(CNc2ccc(CNc3ncn[nH]3)cc2)cc(Cl)c1OCc1ccccc1	3%	5.0%	-10	-10	2.3	12	-8
CSCC[C@H](NC(=O)OC(C)(C)C)C(=O)NCC1CCC(C(=O)N[C@@H](Cc2ccccc2)C(=O)O)CC1 (some centres undefined)	1%	3.3%	12	12	0.5	-24	-6
N#C/C(=C\c1cccc([N+](=O)[O-])c1)c1nnc2n1CCCCC2	10%	4.8%	0	-18	-1.8	17	2
CCC(C)C(=O)Nc1ncc2c(n1)CC(c1cccs1)CC2=O (centres undefined)	8%	6.9%[38.3 µM]	-1	6	-1.9	-4	-8
COc1ccc(-n2c(Cc3cc(=O)[nH]c(=O)[nH]3)nnc2SCC(=O)N2CCCC2)cc1	21%	1.1%	3	3	-4.3	nt	-1
N#Cc1c2c(c(Nc3ccc(O)cc3)n3c1nc1ccccc13)CCC2	5%	13%	-1	3	?	6	68*
CNC(=O)C1CCN(C(=O)c2ccc(-c3ccccc3)cc2)CC1	9%	0.2%	-7	3	-1.6	2	-4
CCCCNc1nc(Cl)nc(Nc2ccc(C)cc2)n1	nt	6.8%	-6	5	-0.4	nt	-7
CC(Sc1nc(N)cc(=O)[nH]1)C(=O)Nc1sc2c(c1C#N)CCCC2 (centres undefined)	7%	2.0%	2	nt	-2.4	13	1
Oc1cccc(/C=N/N=C/c2cccc(O)c2O)c1O	24%	1.0%	-18	-4	3.0	0	-1

# Additional results:
structure	Sfp inh	PINK1 modulator	Six1-Eya2 blk	CtBP-E1A blk	D2 ag	TRPV1 potentiator	D2 potentiator
COc1ccccc1-n1cc(-c2ccccc2)c2c(=S)nc[nH]c21	20%	1.3%	-2	nt	3.9	-3	2
CC1CCN(CC(=O)Nc2ccc3c(c2)OCO3)CC1	nt	3.1%	-2	2	0.0	-3	-6
Cc1ccc(/C=N/NC(=O)CNC(=O)COc2ccccc2)cc1	-2%	6.7%	5	2	-1.1	9	-13
Clc1cccc(C2=NOC(c3nnc(-c4ccccc4)o3)C2)c1 (centres undefined)	-7%	0.5%	9	5	0.9	-4	-10
CCOC(=O)CSc1nc2cc(C(=O)OC)ccc2c(=O)n1CCN1CCOCC1	12%	-4.2%	3	-11	-2.0	-4	-12
CSc1nc2[nH]ncc2c(=O)[nH]1	11%	-1.9%	-4	1	-1.7	-2	2
COc1cc2[nH]c3c(c2cc1OC)CCN1CCCC[C@@H]31	nt	-1.1%	-10	-10	3.8	nt	-20
O=C(Nc1ccccc1N1CCOCC1)c1ccc([N+](=O)[O-])o1	8%	1.3%	4	-1	6.3	?	13
COc1ccc(N(CC(=O)NC2CC3CCC2C3)S(=O)(=O)c2ccccc2)cc1Cl (centres undefined)	-12%	2.0%	-1	-4	-5.2	-10	-18
CNC(=O)C12CC3CC(C1)CC(c1ccc(C)cc1)(C3)C2	13%	0.2%	3	-8	-3.1	1	9
CCNC(=S)N/N=C/c1sc(N2CCCCC2)nc1-c1cccs1	1%	1.8%	2	2	-8.0	0	-10
O=C(C1CCN(S(=O)(=O)c2cccc3nsnc23)CC1)N1CCn2c1nc1ccccc12	4%	-0.2%	0	7	-17	nt	-58
c1ccc(CNc2nc3ccccc3[nH]2)cc1	11%	3.5%[38.3 µM]	4	10	0.4	-10	-28
Cc1cc(C)n(C(=O)c2ccc([N+](=O)[O-])cc2N)n1	-7%	5.6%	-1	-6	1.2	-11	-7
CC(=O)N1CCc2cc(S(=O)(=O)CCC(=O)NCCc3ccccc3)ccc21	8%	-0.4%	0	nt	-0.2	21	-5
CN1OC[C@@H]2CN(C(=O)C(C)(C)C)[C@H](c3cccc(-c4ccccc4)c3)C[C@@H]21	nt	-1.6%	-3	1	-1.9	nt	-4
CCC(C)(C)NC(=O)CN(C(=O)c1snc(C(N)=O)c1N)c1ccc2nc(C)sc2c1	11%	0.6%	6	nt	7.9	4	6
O=C(NCCC1=CCCCC1)C(c1ccccc1)c1ccccc1	14%	6.0%	20	5	0.8	-22	-5
CCOC(=O)c1c(NC(=O)/C=C/C(=O)O)sc(C)c1-c1ccc(Cl)cc1	12%	-2.1%	-15	4	-19	3	-23
Cc1ccccc1-c1nnc(SCC(=O)NC2CCS(=O)(=O)C2)n1C (centres undefined)	nt	2.2%	10	-1	-5.3	nt	-7
CC1CCN(c2ccc3nnc(CCC(=O)Nc4cccc(F)c4)n3n2)CC1	-2%	-0.2%	2	5	2.1	13	-2
COc1ccccc1C1=NOC(COc2ccc3c(C)cc(=O)oc3c2)C1 (centres undefined)	3%	-0.1%	-1	-1	2.8	3	-4
CCOC(=O)COc1ccc(S(=O)(=O)NCc2cccnc2)cc1	21%	nt	3	9	-1.9	0	10
O=C(CSc1nnc(C2COc3ccccc3O2)o1)N1CCCc2ccccc21 (centres undefined)	4%	-0.8%	-2	-2	-3.4	4	0
COc1ccc(Br)cc1/C=N/n1nnnc1N	-1%	0.6%	-9	-5	-3.1	-9	-7
O=C(O)Cn1c(=O)c2c3c(sc2n(Cc2ccccc2)c1=O)CCCC3	8%	-1.2%	0	nt	-6.5	13	-1
O=C(COC(=O)C1CCN(S(=O)(=O)c2cccs2)CC1)Nc1ccccc1Br	5%	-0.8%	-5	-1	12	-6	-5
O=C(COc1ccccc1)N1CCN=C1c1ccccc1	4%	0.4%	8	6	-1.6	nt	1
Nc1ccc(Nc2ccccc2)c(Cl)c1	-23%	-0.6%[38.3 µM]	?	-27	0.8	-10	13
CCOC(=O)N/N=C\C=C\c1ccc2c(c1)OCO2	21%	0.8%	2	4	5.4	-15	12

# Among those listed so far, these contain a cyano group.
structure	Sfp inh	PINK1 modulator	Six1-Eya2 blk	CtBP-E1A blk	D2 ag	TRPV1 potentiator	D2 potentiator
N#C/C(=C\c1cccc([N+](=O)[O-])c1)c1nnc2n1CCCCC2	10%	4.8%	0	-18	-1.8	17	2
N#Cc1c2c(c(Nc3ccc(O)cc3)n3c1nc1ccccc13)CCC2	5%	13%	-1	3	?	6	68*
CC(Sc1nc(N)cc(=O)[nH]1)C(=O)Nc1sc2c(c1C#N)CCCC2 (centres undefined)	7%	2.0%	2	nt	-2.4	13	1

# Profiles from above.
# O=C(C1CCN(S(=O)(=O)c2cccc3nsnc23)CC1)N1CCn2c1nc1ccccc12 is listed with Sfp inh: 4%; PINK1 modulator: -0.2%; Six1-Eya2 blk: 0; CtBP-E1A blk: 7; D2 ag: -17; TRPV1 potentiator: nt; D2 potentiator: -58
# CCC(C)(C)NC(=O)CN(C(=O)c1snc(C(N)=O)c1N)c1ccc2nc(C)sc2c1 is listed with Sfp inh: 11%; PINK1 modulator: 0.6%; Six1-Eya2 blk: 6; CtBP-E1A blk: nt; D2 ag: 7.9; TRPV1 potentiator: 4; D2 potentiator: 6
